Compound activity deposited in PubChem BioAssay by National Center for Advancing Translational Sciences (NCATS).
2A Renilla: FMDV 2A StopGo reporter, Renilla signal. HEK cells with a luciferase reporter of 2A StopGo recoding. Potency, µM (doses to about 57.5 µM), for the others: at the highest dose signal change, negative = less light. actives 0.32% (n = 120,000); active means well fitted falling curve with a large enough effect; inconclusive means small, poorly fitted or top-dose-only effect; inactive means no such curve, though single readings can be large or run the other way; note: nearly all actives have a fitted effect of over 55% in size; overnight with compound
StopGo FLuc: FMDV 2A StopGo reporter, firefly signal. actives 0.23% (n = 120,000). Potency, µM (series often up to 57.5 µM), for inactives: at the highest dose signal change, negative = less light. HEK cells with a luciferase reporter of 2A StopGo recoding; active = well fitted falling curve with a large enough effect; inconclusive = small, poorly fitted or top-dose-only effect; inactive = no such curve, though single readings can be large or run the other way; note: nearly all actives have a fitted effect of over 60% in size; overnight with compound
The depositor's hits bear a star; ? = inconclusive; [ ] = another dose, or the depositor's remark. % is set by controls: 0 for no effect and ±100 for the full control effect; potency is the fitted concentration of half-maximal effect.

compound	StopGo FLuc	2A Renilla
Cc1ccc(CN(Cc2cccn2-c2nnc(N3CCCC3=O)s2)C(=O)Nc2ccccc2C(F)(F)F)cc1	0%	-23%
O=C(CCc1nc2sc3c(c2c(=O)[nH]1)CCC3)NCc1cccc(C(F)(F)F)c1	-9%	-11%
CC(=O)Nc1ccc(NC(=O)c2nccnc2-c2nc3ccccc3s2)cc1Cl	52%[activator]	-1%
CSCC(=O)NC(=O)NCc1ccco1	-3%	5%
CCOC(=O)c1cccc(NC(=O)c2ccc3c(c2)nnn3C2CCCC2)c1	6%	-1%
Cc1ccc(-n2c3c(cc(-c4nc(-c5ccc(Cl)cc5)cs4)c2=O)C(=O)CC(C)(C)C3)cc1C	0%	-22%
CCc1ccccc1NC(=O)Cn1cnc2c(cnn2-c2cc(Cl)ccc2C)c1=O	22%	4%
Cc1cccc(OCC(=O)Nc2cccc(-c3nc4ccc(C)cc4o3)c2)c1	76%[activator]	-2%
CSc1ccc(/C=[N+](/[O-])c2ccccc2)cc1	164%[activator]	12%
CCc1nc2ccc(C(=O)NCCc3ccccc3OC)cc2nc1CC	67%[activator]	145%[activator]
O=C(CN1CCCC1c1ccc2c(c1)OCCCO2)Nc1cccc(Cl)c1Cl (centres undefined)	11%	12%
COc1ccc(C(=O)NC2(C(F)(F)F)C(=O)NC(C)=C2C#N)cc1 (centres undefined)	-1%	-5%
COCCN1C(=O)c2[nH]nc(-c3cc(C)ccc3O)c2C1c1ccc(C(C)C)cc1 (centres undefined)	-7%	-6%
CCOc1ccc(/C=C/C(=O)Nc2sc3c(c2C(=O)OC)C(C(=O)OC)CC3)cc1 (centres undefined)	-19%	-4%
CCN(C)Cc1cccc(CNC(=O)NC2CC2)c1	15%	-1%
Cc1cccc(CN2CCN(CC(=O)NCCc3ccc(Cl)cc3)C2=O)c1	-4%	10%
CCC1CCC/C1=N\NC(=O)c1ccncc1 (centres undefined)	1%	3%
CCOc1ccccc1Oc1c(C(F)(F)F)oc2cc(OC(=O)C(C)C)ccc2c1=O	?	?
CCC(=O)c1ccc(O)cc1	-10%	-8%
COc1cc(OC)cc(N2C(=O)N(CC(=O)c3ccc(F)cc3)c3ccccc3S2(=O)=O)c1	-1%	136%[activator]
COCCCNc1oc(-c2ccc(COc3ccc(Cl)cc3)o2)nc1C#N	-12%	-18%
CCOC(=O)C1=C(CS(=O)(=O)c2cccc(C(F)(F)F)c2)NC(=O)NC1c1cccc(OC)c1 (centres undefined)	-5%	-1%
Cc1cc(C(=O)OCC(=O)Nc2cc(F)ccc2F)c2ccccc2n1	-5%	-12%
Cc1ccc2c(CC(=O)Nc3cccc(Cl)c3C)coc2c1	15%	-3%
CCOc1ccccc1NC(=O)c1ncoc1-c1ccc(OC)cc1	-2%	-10%

Other records.
compound	StopGo FLuc	2A Renilla
CCCC(=O)NCC1CC2c3ccccc3C1c1ccccc12 (centres undefined)	-3%	8%
Cn1c(=O)c2c(ncn2CCC(=O)NC2CCCCC2)n(C)c1=O	17%	1%
O=C(Nc1ccnn1Cc1ccccc1)c1cc(=O)c2cc(Cl)ccc2o1	-17%	-7%
CCCn1nc(C(=O)N(C)Cc2cccc(OC)c2)c2ccccc2c1=O	?	-23%
COc1ccc(CNC(=O)c2cc3oc4ccccc4c3n2C)cc1OC	20%	6%
CCc1ccc(NC(=O)CSc2nc3c(c(=O)n2CCc2ccccc2)SCC3)cc1	29%	12%
COc1ccc(-c2cc(C(=O)N3CCN(CC(=O)N(C)C)CC3)c3ccccc3n2)cc1	187%[activator]	57%[activator]
CCCCN(CCCC)c1nc(-c2ccncc2)nc2ccccc12	13%	1%
COCCNC(=O)CSCc1nc(-c2ccc(C)cc2)oc1C	55%[activator]	17%
N#Cc1nc(-c2ccc(S(=O)(=O)N3CCCCCC3)cc2)oc1NC1CCCCC1	21%	24%
Cc1ccc(-n2nnnc2SC(C(=O)N2CCCC2)c2ccccc2)cc1C (centres undefined)	33%[activator]	31%[activator]
COc1ccc(Cn2c3c(c(=O)[nH]c2=O)CN(Cc2ccccc2)CN3)cc1	3%	-1%
Cc1[nH]c(C)c(S(=O)(=O)NCc2ccc(Cl)cc2)c1C(=O)N1CCCC1	-5%	56%[activator]
CCCCn1c(SCC(=O)NCc2ccccc2)nc2cc(C(=O)OC)ccc2c1=O	31%[activator]	8%
COc1ccc(CCNc2nc3c(-c4cccc(C(F)(F)F)c4)nnn3c3ccccc23)cc1OC	-14%	-12%
O=C(/C=C/c1ccccc1Br)c1ccc(O)cc1	24%	35%[activator]
CC(C)C(NS(=O)(=O)c1ccccc1)c1cccs1 (centres undefined)	0%	-8%[1.06 µM]
C#CC(C)(CC)NC(=O)/C(=C/c1ccccc1)NC(=O)c1ccccc1 (centres undefined)	-6%	-16%[1.06 µM]
CCNC(=O)NC(=O)C(C)Sc1cc(C)c2ccccc2n1 (centres undefined)	12%	14%
CCCCn1nc(C(=O)Nc2c(C)cccc2CC)c2ccccc2c1=O	5%	4%
O=C(CSc1nc2c(c(=O)n1-c1ccc(F)cc1)SCC2)N1CCCCC1	35%[activator]	43%[activator]
Cc1cccc(NC(=O)c2ccc3nccnc3c2)n1	101%[activator]	-1%
Cc1ccc(NC(=O)c2oc3ccccc3c2C)cc1C	0%	-6%
O=C(Cn1nc(C(=O)O)c2ccccc2c1=O)Nc1cccc(Cl)c1	4%	0%
CCS(=O)(=O)N1CCc2cc(C(=O)c3cc4cc(Cl)ccc4o3)ccc21	-16%	-12%

(further entries)
compound	StopGo FLuc	2A Renilla
O=C(O)c1ccccc1-c1ncc(-c2ccc(F)cc2)o1	0%	8%
Cn1c(=O)n(Cc2ccccc2)c(=O)c2c1nc(Cl)n2Cc1ccccc1	8%	-4%
C1=C(c2ccccc2)Nc2nc3ccccc3n2C1c1ccccc1 (centres undefined)	166%[activator]	4%
CCCSc1ccccc1C(=O)NC(C)(C)C	0%	18%
COc1ccc(-c2nc3ccccc3s2)cc1NC(=O)c1cccc([N+](=O)[O-])c1C	94%[activator]	7%
O=C(NNc1ncnc2c1cnn2-c1ccccc1)c1cccc(Cl)c1	-4%	-11%
COc1cccc(CN2C(=O)c3ccccc3Sc3ccc(C(=O)N(C)Cc4ccccc4)cc32)c1	?	0%
Cn1c(SCC(=O)Nc2cc(F)ccc2F)nc2c(=O)[nH]cnc21	18%	9%
S=c1sc2c(s1)SCOCS2	24%	6%
CCc1nn2c(=O)cc(COC(=O)c3ccc(NC(=O)C4CCCCC4)cc3)nc2s1	30%	-4%
c1ccc(CNC2(c3nnnn3-c3ccccc3)CCCC2)cc1	5%	0%
FC(F)(F)c1cc(-c2cccc(Br)c2)nc2ncnn12	0%	5%
CCOC(=O)c1cc(-c2ccccc2)n(CCCC(=O)Nc2ccc(C)c(C)c2)c1C	?	?
CCOc1ccc(N2CC(c3nc4ccccc4n3CCOc3ccc(CC)cc3)CC2=O)cc1 (centres undefined)	-8%	-6%
CN(C)CCNC(=O)CN1CCN(C(C(=O)O)c2c[nH]c3cc(OCc4ccccc4)ccc23)CC1 (centres undefined)	23%	-5%
CN(C)C(=O)CNS(=O)(=O)c1cc(F)cc(F)c1	-8%	0%
COc1cccc(-c2noc(COc3ccc(C(C)(C)C)cc3)n2)c1	2%	-12%
Brc1cc2c(cc1Cn1nnc(-c3ccccc3)n1)OCO2	55%[activator]	-5%
Fc1ccc(OCc2ncc(-c3ccccc3)o2)c(Br)c1	102%[activator]	19%
Cc1csc(NC(=O)CCc2ccc(S(N)(=O)=O)cc2)n1	0%	14%
Cc1ccc(C)c(N2CCN(c3nc4ccc(C)cc4nc3-n3nc(C)cc3C)CC2)c1	-5%	-6%
O=C(NCCS(=O)(=O)N1CCN(c2ccc(F)cc2)CC1)c1cccc(C(F)(F)F)c1	-24%	0%
COc1cc(NC(=O)CCS(=O)(=O)c2ccc(Br)cc2)cc(OC)c1	-16%	5%
CC(C)N(Cc1nc(-c2ccc(Cl)cc2)no1)C(=O)c1ccco1	23%	0%
COc1ccc(-c2nc(CSc3nnc(C)n4c3cc3occc34)c(C)o2)cc1OC	3%	3%

4 structures out of the list, arranged by SMILES length, low to high.
compound	StopGo FLuc	2A Renilla
Cc1ccc2c(CC(=O)Nc3cccc(Cl)c3C)coc2c1	15%	-3%
c1ccc(CNC2(c3nnnn3-c3ccccc3)CCCC2)cc1	5%	0%
Cn1c(SCC(=O)Nc2cc(F)ccc2F)nc2c(=O)[nH]cnc21	18%	9%
COc1ccc(-c2nc3ccccc3s2)cc1NC(=O)c1cccc([N+](=O)[O-])c1C	94%[activator]	7%

Remaining list, next part.
compound	StopGo FLuc	2A Renilla
O=C(CCC1CCCCC1)Nc1ccc2ccccc2c1	366%[activator]	59%[activator]
CCN(Cc1ccc(Cl)s1)C(=O)c1[nH]c2c(c1C)C(=O)CC(C)(C)C2	-4%	147%[activator]
Cc1cc(C(=O)N2CCN(S(=O)(=O)c3ccc(C)c(C)c3)CC2)no1	22%	18%
CC1CCN(C(=O)CSc2nnc(CNC(=O)c3ccccc3F)n2C)CC1	17%	0%
Cc1ccc(-c2ccc(C=C(C#N)C#N)o2)cc1C(=O)O	11%	-6%
Cc1ccc(-c2csc(-c3c(N)c(C(=O)c4ccc5c(c4)OCO5)n4ccccc34)n2)cc1C	13%	-10%
CCc1c(C)sc(NC(=O)CCCCl)c1C#N	0%	25%
COc1ccc2cc(-c3cn4c(n3)sc3cc(F)ccc34)c(=O)oc2c1	58%[activator]	20%
O=C(NCCc1ccc(F)cc1)c1cc(C2CC2)nc2ccccc12	0%	22%
COc1ccc(-c2cc(C(F)(F)F)n3nc(C(=O)Nc4ccc(Cl)cc4C(F)(F)F)cc3n2)cc1OC	-13%	-5%
CC(Sc1nc2cc(C(F)(F)F)ccc2n1Cc1ccccc1)C(=O)c1ccc(F)cc1 (centres undefined)	-6%	13%
CCc1ccccc1NC(=O)c1nn(-c2ccccc2)c(=O)c2ccccc12	5%	-7%
CC(C)(C)c1nc2c3cnn(-c4ccc(Cl)cc4)c3ncn2n1	0%	0%
CCOc1ccccc1C(=O)Nc1ccc2nc(N(CC)CC)cc(C)c2c1	-7%	-4%
COCc1nnc(NC(=O)Cn2ccc3ccc(Cl)cc32)s1	5%	-7%
CC(NCc1cccc(S(=O)(=O)N(C)C)c1)c1cccs1 (centres undefined)	13%	14%
COc1ccc(/C=C/C(=O)Oc2cccc(C)c2)cc1	24%	15%
CCCCOC(=O)c1ccc(NC(=O)c2ccc3c(c2)CCN3S(=O)(=O)c2ccccc2)cc1	-39%	-11%
Cc1c(C(=O)NC(c2ccc(Cl)cc2)c2nccn2C)oc2ccccc12 (centres undefined)	106%[activator]	4%
CCOC(=O)c1[nH]c(C)c(CCC(=O)N2CCN(c3ccc(Cl)cc3)CC2)c1C	-25%	-19%
COc1ccc(N2CCN(S(=O)(=O)c3ccc(C4CCCCC4)cc3)CC2)cc1	-8%	-6%
Cc1cccc(-c2nc3nc(C)cc(NC(C)c4ccccc4)n3n2)c1 (centres undefined)	42%[activator]	5%
O=C(O)C1CCN(S(=O)(=O)c2ccc(Cl)c(Cl)c2)CC1	-5%	-11%
O=[N+]([O-])c1cc(-c2nc(-c3ccccc3)no2)ccc1NCC1CCCO1 (centres undefined)	43%[activator]	16%
CS(=O)(=O)Nc1ccc(-c2csc(NC3CC3)n2)cc1	170%[activator]	14%

Next structures:
compound	StopGo FLuc	2A Renilla
COc1ccc(-n2c(SCC(=O)Nc3nnc(C)s3)nc3c([nH]c4ccccc43)c2=O)cc1	-6%	-7%
COc1ccccc1NC(=O)CSc1nnc(-c2nonc2NC(C)=O)n1-c1ccccc1	1%	5%
O=c1c2ccccc2cnn1CN1CCN(S(=O)(=O)c2ccc(Cl)cc2)CC1	-3%	-11%
c1ccc(-c2csc(-c3ccccn3)n2)cc1	283%[activator]	0%
Cc1nc(-c2cccc(S(=O)(=O)N3CCC(C(=O)NCc4ccccc4)CC3)c2)no1	-8%	-6%
CCn1c(SC(C)C(=O)Nc2ccnn2C(C)C)nnc1C1CC1 (centres undefined)	8%	3%
O=C(COc1ccccc1C(=O)O)NCc1ccco1	-9%	-3%
Cc1ccc(CNS(=O)(=O)c2ccc3c(c2)CCN3S(C)(=O)=O)cc1	-14%	4%
C#CCN1CCC(C(=O)NC(C)c2ccc(C(F)(F)F)cc2)CC1 (centres undefined)	-2%	8%
N#Cc1ccc(NC(=O)C2Cc3ccccc3CN2S(=O)(=O)c2ccc(F)cc2)cc1 (centres undefined)	-11%	17%
CCCc1c(C)c2ccc(O)c(CN3CCN(c4ccc(F)cc4)CC3)c2oc1=O	-6%	-1%
c1coc(CNc2ccc3c(c2)ncn3C2CCCCC2)c1	146%[activator]	90%[activator]
COc1cc(OC)cc(C(=O)Nc2nc(-c3nnn(-c4ccc(F)c(Cl)c4)c3C)ns2)c1	11%	9%

Not all compounds are listed (hit frequency here may not be typical).
